Beta cell apopt – beta cell apoptosis inhibition | 0.8% of 300,000 active | protection from apoptosis, % (test concentration not listed) | INS-1E cytokine-induced death, ATP luminescence, 48 h; percent of positive-control rescue, neutral wells zero;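 active means all replicates at 75% or more, or half of them and the mean; inconclusive means half reach 75% but not the mean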;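 further: 0% = cytokine-treated negative control wells and 100% = positive control rescue; higher means more ATP so stronger rescue from cytokine killing; wells of about 40 µL received 100 nL stock; the first replicate is given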
ALR H2O2 inh – human ALR oxidase inhibition via reduced H2O2; purified ALR, DTT oxidation, H2O2 HRP-luminol luminescence; inhibition, % (no concentration beside the values); 3.8% of 290,000 active; AID 485317;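 active means mean and each replicate at 75% or more; inconclusive means only one of the two met; inactive means neither met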;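 further: stock transfer was 7.5 nL into about 7.5 µL; 0% = neutral wells and 100% = wells with inactivated enzyme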
Target sequence (P55789 whole entry, looked up): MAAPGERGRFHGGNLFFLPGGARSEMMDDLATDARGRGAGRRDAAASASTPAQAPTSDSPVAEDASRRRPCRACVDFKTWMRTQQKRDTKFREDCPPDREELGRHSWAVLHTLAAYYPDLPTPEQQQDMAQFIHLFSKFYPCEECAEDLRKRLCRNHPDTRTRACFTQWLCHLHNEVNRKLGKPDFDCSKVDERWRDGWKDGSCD
rRNA inh HTS – inhibitors of bacterial rRNA selective over humanized ribosomes; GFP signal change (wild-type ribosome), % (test concentration not listed); E. coli WT GFP vs humanized-ribosome RFP mutants, fluorescence, 24 h; hits give low values; DMSO median 0, no signal -100; 1.6% of 350,000 active;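 active means significant combined selectivity score with lowered wild-type GFP, culture density cut under 30%, mutant RFP and density less affected; inactive means any of these conditions unmet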; further: one replicate is shown; some compounds called inactive have numbers as strong as hits
LANA-H2B inh – blocks KSHV LANA binding to histone H2A/H2B; Q9QR71; inhibition, % (test concentration not listed); cell-free LANA-H2A/H2B peptide, fluorescence polarization; AID 2629; 0.6% of 320,000 active; in the data active means inhibition mostly above about 10%, no sharp cut-off; inactive means mostly below about 6.7%;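 further: stock transfer was 7.5 nL into about 10 µL; 0% = median of vehicle wells and 100% = median of positive control wells; one replicate is shown; the record names a cut of 25% in any replicate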
T cruzi inh – blocks replication of Trypanosoma cruzi; 1.4% of 300,000 active; T. cruzi beta-gal in NIH3T3, luminescence, 90 h; inhibition, % (concentration not given with the values); AID 1885;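 active means mean inhibition across valid replicates above about 55%, limit read from the data; inconclusive means mean below that limit but half or more replicates reach it; inactive means mean below it, under half of replicates reach it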;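 further: signal also drops with host cell toxicity which is not excluded here; 0% = plate median of DMSO wells and 100% = zero luminescence signal; higher percent means less beta-gal luminescence so fewer parasites; stock transfer was 50 nL into about 50 µL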
B2AR ag – human beta-2 adrenergic receptor agonism by FAP; 0.43% of 340,000 active; Am2.2-beta2AR cells, FAP receptor internalization, flow cytometry; reference of the scale not given here; response, % (no concentration beside the values);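 active means response above a set limit, near 3 SD of response in nonfluorescent compounds, cut at about 42% in these data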;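 further: stock transfer was 100 nL into about 11 µL; a reference agonist was the positive control; negative values mostly stem from fluorescent compounds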
Target sequence (P07550 whole entry, looked up): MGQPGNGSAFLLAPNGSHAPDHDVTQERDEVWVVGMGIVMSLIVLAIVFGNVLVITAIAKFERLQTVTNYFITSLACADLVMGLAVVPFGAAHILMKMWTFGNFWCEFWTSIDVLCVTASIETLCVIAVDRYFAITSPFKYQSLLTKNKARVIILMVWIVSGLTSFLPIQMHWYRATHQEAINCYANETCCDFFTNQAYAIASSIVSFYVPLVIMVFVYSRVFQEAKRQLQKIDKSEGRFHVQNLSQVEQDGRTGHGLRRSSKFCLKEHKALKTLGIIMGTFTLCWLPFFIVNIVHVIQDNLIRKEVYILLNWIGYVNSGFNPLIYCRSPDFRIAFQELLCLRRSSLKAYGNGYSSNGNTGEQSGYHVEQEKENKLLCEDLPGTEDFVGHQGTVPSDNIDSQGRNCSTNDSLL
Calb FLC – affects C. albicans growth with fluconazole. 0.57% of 300,000 active. growth inhibition, % (no concentration beside the values). C. albicans CaCi-2 (fluconazole-resistant clinical isolate) + fluconazole, Alamar Blue growth, 48 h;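 active means most replicates above 75%; inconclusive means exactly half above 75%; inactive means most below 75%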;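 further: all wells also contain fluconazole at 8 µg/ml as a sub-toxic cotreatment; 0% = median of DMSO wells and 100% = median of geldanamycin control wells; wells of about 8 µL received 7.5 nL stock; the first replicate is given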
Bfl-1 A1 inh – inhibitors of the anti-apoptotic protein A1, read as caspase activation. caspase activation, % (no concentration beside the values). MEF A1-2A-BIM cells, Caspase-Glo 3/7 luminescence, 3 h; percent of clofoctol response, vehicle zero. 0.066% of 330,000 active;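 active means over half of replicate activation scores above 10%, or exactly half above 10 with the replicate mean above 10; inconclusive means replicate mean below 10 yet half the replicates above 10; inactive means over half of replicates below 10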;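 further: wells of about 30 µL received 50 nL stock; many hits fall short of the cut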
rRNA inh HTS OD600 – further read-out of rRNA inh HTS, marked with its call; OD600 change, %; measured here: OD600 growth;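 optical density of the mix in the first replicate; 0 = DMSO median and -100 = no signal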
rRNA inh HTS RFP – also measured in rRNA inh HTS; calls as there; RFP signal change, %; measured here: RFP humanized mutant strains;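 first replicate; 0 = DMSO median and -100 = no signal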
* marks the source's active call; other numbers are inactive results; ? = inconclusive; . = not tested or not shown. These rows are one share of the data; rates above refer to the full screens.

SMILES | Beta cell apopt | ALR H2O2 inh | rRNA inh HTS | rRNA inh HTS OD600 | rRNA inh HTS RFP | LANA-H2B inh | T cruzi inh | B2AR ag | Calb FLC | Bfl-1 A1 inh
CC1(C)C2([N+](=O)[O-])CN3CC1([N+](=O)[O-])CN(C2)C3c1ccccn1 (configuration not stated) | -1 | -4 | 27 | 8 | 1.9 | -9.4 | -8 | -7 | -11 | 1.0
COC(=O)C1=C(c2ccc(C(C)=O)cc2)C[C@@H]2CC[C@H]1N2C(=O)NC1CCCCC1 | -6 | 5 | -4 | -3 | 1.9 | 2.9 | . | -13 | . | 0.8
Cc1cccc(N2CCN(CCc3ccccc3)CC2)c1C | 0 | -11 | . | . | . | -1.4 | -7 | -7 | -15 | -0.3
O=c1c2ccccc2nc(-c2ccccc2F)n1-c1ccccc1 | -2 | -4 | -3 | -6 | -1.4 | -1.7 | -16 | -14 | 63 | 1.1
CCc1ccc(N2C(=O)NC(=O)/C(=C\c3cc(C)n(-c4cc(C(=O)O)cc(C(=O)O)c4)c3C)C2=O)cc1 | 0 | 11 | 16 | 13 | 1.9 | -6.2 | -8 | -23 | 11 | 0.2
CCN1C[C@]2(COC)CC[C@H](O)[C@@]34C5C[C@@H]6[C@@H](OC)C[C@@](O)(C5[C@H]6O)[C@](O)([C@@H](OC)C23)[C@@H]14 (some centres not stated) | 1 | -8 | -8 | 1 | -0.8 | 1.0 | 18 | -5 | 0 | 0.0
CCOc1cc2c(cc1OCC)-n1cccc1C(c1ccccc1OC)NC2 (configuration not stated) | . | . | 2 | -10 | 1.7 | 1.3 | 18 | 5 | -10 | 0.9
CC(C)C12CN3CC(C(C)C)(CN(C1)C3c1cccnc1)C2=O (configuration not stated) | -4 | -14 | . | . | . | 5.4 | 15 | -1 | 39 | -0.2
CCNC(=O)[C@H]1O[C@@H](n2cnc3c(N)ncnc32)[C@H](O)[C@@H]1O | 2 | 6 | . | . | . | -2.3 | -8 | -5 | . | 1.2
COC(=O)C1=C(c2ccc(OCc3ccccc3)cc2)C[C@@H]2CC[C@H]1N2C(=O)NCCN1CCOCC1 | -11 | . | -1 | -7 | 4.9 | 5.0 | . | 1 | . | 0.6
c1ccc([C@@H]2CO2)cc1 | 0 | -8 | . | . | . | -4.9 | -39 | . | . | -0.3
OC(Cc1ccccc1)(c1ccccc1)C1CN2CCC1CC2 (configuration not stated) | -14 | 0 | . | . | . | -2.9 | -7 | 2 | -13 | 0.7
OCCOc1ccccc1 | -2 | . | 8 | 14 | -0.9 | 2.5 | . | -1 | . | 1.1
Cc1ccc2c(c1)N(C(=O)CCC(=O)N1CCC3(CC1)OCCO3)CCO2 | -6 | -4 | -2 | 12 | 4.1 | -4.6 | -6 | 9 | -2 | 0.4
Cc1ccc(N2C(=O)NC(=O)/C(=C\C=C\c3ccco3)C2=O)cc1 | 40 | 55 | 19 | 25 | 8.5 | -7.0 | -23 | 69* | -6 | 3.2
CCOc1ccc2nc(N3CCC(C(=O)N4CCC5(CC4)OCCO5)CC3)sc2c1 | -3 | 14 | . | . | . | -3.2 | 22 | 6 | -4 | 0.1
NC(=O)c1ccc(C(=O)Nc2ccc([As](=O)(O)O)cc2)cc1 | -3 | -1 | 13 | 10 | -0.7 | -3.1 | -8 | . | 1 | 0.9
CCOc1ccccc1N=C1SCCCN1C | -7 | -3 | . | . | . | -0.6 | -6 | 1 | 13 | 0.7
FC(F)(F)C1=NC(C(F)(F)F)=NP(N2CCOCC2)(N2CCOCC2)=N1 | -3 | . | . | . | . | 4.9 | -11 | -4 | -8 | 0.9
COc1ccc(C2=NS(=O)(=O)N(C)C(C(=O)N3CCC4(CC3)OCCO4)=C2)cc1OC | 5 | 4 | -1 | 3 | 1.9 | 0.6 | 8 | -1 | -5 | -0.5
O=C(O)C12C3CCCC1C32c1ccccc1 (configuration not stated) | -3 | 99* | . | . | . | -7.1 | -5 | -1 | 2 | 0.7
O=c1[nH]c(=S)n(-c2ccc(F)cc2)c(O)c1/C=N/N1CCOCC1 | 5 | 29 | 20 | 22 | 5.4 | 2.3 | 8 | 7 | 1 | 0.5
COC(=O)c1ccc(N2CCN(C)CC2)c([N+](=O)[O-])c1 | . | -2 | 11 | 16 | 2.7 | 1.7 | 18 | 0 | 22 | 0.0
CN1CCCC1C(O)(c1ccccc1)c1ccccc1 (configuration not stated) | -11 | 0 | . | . | . | -0.2 | -9 | 1 | 1 | 0.3
O=C(CN1CCN(Cc2cccc(Cl)c2)C1=O)N1CCC2(CC1)OCCO2 | -1 | -9 | . | . | . | 0.2 | -2 | 0 | 0 | 0.2
Clc1ccccc1CN1CCN(c2ccccc2Cl)CC1 | 3 | 2 | -42* | -32* | -9.5* | -5.4 | 3 | 6 | 16 | 0.4
O=c1[nH]c(=S)[nH]c(O)c1N=Nc1cccc(S(=O)(=O)N2CCOCC2)c1 | 5 | 11 | 4 | 3 | -4.6 | 2.5 | -7 | -1 | 0 | 0.1
COC(=O)CN1C(=O)C2(C(C(=O)OC)=C(N)Oc3ccccc32)C2=C1CC(C)(C)CC2=O (configuration not stated) | -5 | -3 | . | . | . | 2.2 | -16 | -2 | -15 | 0.1
COc1cc([C@H]2OC[C@H]3[C@@H]2CO[C@@H]3c2cc(OC)c(O[C@@H]3O[C@H](CO)[C@@H](O)[C@H](O)[C@H]3O)c(OC)c2)cc(OC)c1O[C@H]1O[C@@H](CO)[C@H](O)[C@@H](O)[C@@H]1O | 4 | -20 | 2 | 3 | -4.1 | 0.8 | . | -8 | . | 1.6
CCCCc1nc2ccccc2c(=O)n1-c1ccc(O)cc1 | 3 | 1 | . | . | . | -2.9 | -2 | -19 | 0 | -0.9
O=C1CC(N2CCC(n3c(=O)[nH]c4ccccc43)CC2)C(=O)N1Cc1ccccc1 (configuration not stated) | 3 | 0 | . | . | . | -2.3 | 18 | -5 | 21 | -0.1
COCCNC(=O)Cn1cc(C=C2C(=O)NC(=O)NC2=O)c2ccccc21 | -8 | 11 | 9 | 10 | 3.5 | -1.6 | -25 | -1 | -3 | 0.6
NCCCC(=O)OC1N=C(c2ccccc2Cl)c2cc(Br)ccc2NC1=O (configuration not stated) | -8 | -13 | -7 | -25 | -4.2 | -3.7 | 11 | -12 | -1 | -0.6
COC(=O)C1=C(c2cc3ccccc3o2)C[C@@H]2CC[C@H]1N2C(=O)NCCNC(C)=O | -2 | . | 9 | 4 | 2.3 | -2.7 | 2 | -3 | 12 | 1.2
Fc1ccc(CCNCc2cccc(Cl)c2)cc1 | -5 | 0 | . | . | . | -3.9 | 52 | 6 | -21 | 0.2
COc1ccc2oc3c(c2c1)NC(=O)CN=C3c1ccccc1 | -5 | -2 | 6 | -4 | 0.5 | 3.8 | 3 | -1 | 8 | 0.2
CN1C(=O)/C(=C\c2ccc(N3CCCCC3)o2)C(=O)NC1=S | -4 | . | . | . | . | -1.3 | 8 | -1 | 13 | -3.7
O=C1CCN(C(=O)C(Cl)Cl)N1 | -1 | 6 | 1 | 8 | -0.5 | 3.3 | -8 | 1 | -8 | 0.2
O=P(Nc1ccccc1Cl)(c1ccccc1)c1nc2c(s1)CCCC2 (configuration not stated) | -27 | -14 | . | . | . | -7.6 | 19 | 3 | -3 | 1.2
COc1ccc(CNCC(=O)N2CCC3(CC2)OCCO3)cc1 | -9 | -4 | 8 | 5 | -0.9 | 1.7 | -5 | -4 | 2 | 0.7
COc1cc(OC)cc(-n2nc(C(=O)N3CCC4(CC3)OCCO4)c3ccccc3c2=O)c1 | -3 | . | . | . | . | 5.5 | . | -2 | . | 0.0
CC(C)n1c(=O)c(C=Nc2ccc(F)cc2)c(O)n(Cc2ccco2)c1=O | -7 | -2 | 7 | 2 | -1.0 | -4.0 | 9 | -34 | -23 | 0.7
Cn1c(O)c(C=NCCN2CCNCC2)c(=O)n(C)c1=O | -3 | 4 | . | . | . | -1.6 | -3 | -3 | 1 | -0.1
O=C(Cc1ccc(Br)cc1)N1CCN(Cc2ccccc2)CC1 | -10 | 0 | . | . | . | 3.3 | -15 | -5 | 1 | 0.4
C[C@@H]1CCC2[C@@H](C)C(=O)O[C@@H]3OC4(C)CCC1[C@@]23OO4 (some centres not stated) | 10 | -3 | . | . | . | -6.5 | . | . | . | -0.5
CCN(CC)C(=O)c1ccc(NC(=S)NC(=O)CCc2ccccc2)cc1 | -5 | 3 | -1 | -8 | 2.0 | -0.3 | 8 | -4 | -1 | -0.9
Nc1nc(SCCC(F)=C(F)F)n[nH]1 | -7 | 10 | 11 | 12 | -6.3 | -0.8 | -5 | 3 | 0 | 1.2
COC(=O)C1=C(c2c(C)noc2C)C[C@@H]2CC[C@H]1N2C(=O)N1CCc2cc(OC)c(OC)cc2C1 | -7 | -16 | . | . | . | 1.6 | . | -5 | . | 0.2
COC(=O)C1=C(c2ccc(F)cc2OCc2ccccc2)C[C@@H]2CC[C@H]1N2C(=O)N1CCC(C)CC1 | 0 | -3 | . | . | . | -3.5 | . | -1 | . | 0.6
Cc1cccc(-n2c(C)nc3ccccc3c2=O)n1 | -13 | -3 | . | . | . | -1.3 | 8 | -3 | -2 | -2.6
Other structures:
SMILES | Beta cell apopt | ALR H2O2 inh | rRNA inh HTS | rRNA inh HTS OD600 | rRNA inh HTS RFP | LANA-H2B inh | T cruzi inh | B2AR ag | Calb FLC | Bfl-1 A1 inh
CCCCn1c(O)c(C(CC)=NCCN2CCOCC2)c(=O)[nH]c1=O | -13 | -8 | . | . | . | 4.8 | -3 | 3 | 5 | 0.0
O=c1[nH]c(=O)n(Cc2ccco2)c(O)c1C=NCCN1CCNCC1 | . | -2 | 19 | 17 | 0.6 | -3.6 | -6 | -3 | -6 | -0.8
COc1ccc(OC)c(N=Cc2c(O)n(Cc3ccccc3)c(=S)[nH]c2=O)c1 | -3 | . | -3 | 0 | 16 | -1.3 | -3 | 10 | 1 | 0.1
CCN(CC)P(=O)(c1nccn1C)N(CC)CC | -4 | -2 | 16 | 10 | 3.4 | 0.3 | -4 | -3 | -3 | -0.1
CC(C)c1ccc(N2C(=O)CC(=O)NC2=O)cc1 | -3 | -18 | 11 | 16 | 2.6 | -2.3 | -6 | 3 | 5 | 0.1
COc1ccc(CCNCc2ccc(SC)cc2)cc1 | -3 | 3 | . | . | . | -0.7 | 61* | . | -2 | 0.5
CCN(CC)CC(O)c1ccc(C2CCCC2)cc1 (configuration not stated) | -7 | -8 | 3 | -9 | -3.9 | -3.0 | 31 | 3 | -2 | 0.6
COC(=O)C1=C(c2c(C)noc2C)C[C@@H]2CC[C@H]1N2C(=O)NCCO | -3 | 5 | . | . | . | -4.3 | . | -4 | . | 1.0
Cc1cccc2c1N(N=O)CCC2 | -3 | 0 | . | . | . | 0.5 | -11 | -1 | -13 | 0.8
Cc1cc(/C=C2\C(=O)NC(=O)N(c3cccc(Br)c3)C2=O)c(C)n1C | -4 | -5 | . | . | . | 0.9 | -24 | -6 | . | -0.5
CCCSP1(=S)NCCCO1 (configuration not stated) | 5 | -1 | . | . | . | -2.3 | -6 | 2 | . | 0.4
Cc1cc(C)nc(N2Cc3ccccc3C2=N)n1 | 10 | -2 | 15 | 20 | 3.8 | -4.5 | -14 | -5 | 6 | 0.6
Cc1ccc(-c2nn(Cc3ccccc3)cc2C=O)cc1C | 4 | 3 | 3 | 4 | 7.4 | -4.1 | 17 | -7 | 12 | ?

Compound activity deposited in PubChem BioAssay by several laboratories.
